Screening data as filed in PubChem.
MenB inh: Mtb MenB enzyme inhibition; P9WNP5; MenB enzyme assay, absorbance read-out; some hits fall short of the stated cut; inhibition, %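 (about 12 µg/mL by stock and volumes)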; 0.43% of 100,000 active;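 active means mean of two replicates above 30%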;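 further: 0% = no compound and 100% = wells with inactive enzyme; the first replicate is given; strong numbers were not always called active; inactives centre near -10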
Target sequence (P9WNP5 whole entry, looked up): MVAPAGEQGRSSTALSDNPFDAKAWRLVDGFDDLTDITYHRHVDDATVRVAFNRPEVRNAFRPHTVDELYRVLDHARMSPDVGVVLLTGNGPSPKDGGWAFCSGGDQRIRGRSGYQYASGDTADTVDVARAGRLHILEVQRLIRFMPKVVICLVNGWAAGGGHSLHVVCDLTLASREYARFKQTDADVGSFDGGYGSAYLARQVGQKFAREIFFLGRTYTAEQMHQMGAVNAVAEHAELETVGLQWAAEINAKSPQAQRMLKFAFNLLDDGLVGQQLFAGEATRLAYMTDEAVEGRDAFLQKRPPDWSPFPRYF
Polio RdRp inh: poliovirus RNA polymerase inhibition. P03300. poliovirus polymerase elongation, fluorescence polarization; hits give low values. % elongation, % (compound at 16.7 µg/mL). 0.66% of 150,000 active. AID 588519; in the data active means % elongation below about 90%; further: some results filed as inactive read as strong as hits
Target sequence (P03300 1749-2209 limits assumed): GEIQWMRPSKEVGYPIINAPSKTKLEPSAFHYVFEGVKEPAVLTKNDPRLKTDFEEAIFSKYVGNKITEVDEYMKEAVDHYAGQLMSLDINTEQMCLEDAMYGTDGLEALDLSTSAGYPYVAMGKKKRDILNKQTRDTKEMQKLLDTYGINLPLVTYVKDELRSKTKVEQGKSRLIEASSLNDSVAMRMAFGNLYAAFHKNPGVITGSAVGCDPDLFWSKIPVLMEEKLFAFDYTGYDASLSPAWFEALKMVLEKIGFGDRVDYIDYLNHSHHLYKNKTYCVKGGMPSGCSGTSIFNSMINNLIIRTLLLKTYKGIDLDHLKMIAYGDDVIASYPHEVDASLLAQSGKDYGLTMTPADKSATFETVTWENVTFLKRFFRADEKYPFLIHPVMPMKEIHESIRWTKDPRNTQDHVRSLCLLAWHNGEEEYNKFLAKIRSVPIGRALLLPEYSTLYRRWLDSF
Mtb MbtI inh: inhibitors of Mycobacterium tuberculosis siderophore enzyme MbtI | P9WFX0 | purified MbtI enzyme, fluorescence intensity read-out | inhibition, %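 (about 17 µg/mL by stock and volumes)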 | 0.89% of 100,000 active;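 active means above 50% in both replicates, above 80% if mildly self-fluorescent; inactive means the rest, strongly fluorescent compounds included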;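 further: 0% = mean of negative and 100% = mean of positive controls; one replicate is shown; some compounds called inactive have numbers as strong as hits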
Polio RdRp inh intensity: second read-out of Polio RdRp inh, no call of its own (marks repeat the call); % elongation; measured here: total intensity read-out; formula for this scale not given here;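 total fluorescence in place of polarization; lower means less elongation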
Numbers without * were called inactive; · = no result given; & = joins results of further samples.

SMILES | MenB inh | Polio RdRp inh | Polio RdRp inh intensity | Mtb MbtI inh
O=C1Nc2ccccc2C12NCCc1c2[nH]c2ccccc12 (stereo not given) | -26 | 101 | 101 | 4
CCSc1nc2ccccc2n1S(=O)(=O)c1ccccc1 | -24 | 100 | 97 | -2
Cc1cccc(-n2ncc3c(=O)[nH]c(SCC(=O)NCCC4=CCCCC4)nc32)c1 | -7 | 99 | 109 | -7
NC(=O)N1CCCC1C(=O)O (stereo not given) | 2 | 104 | 104 | -1
Cc1ccc(NC(=O)CCn2cnc3ccccc3c2=O)cc1C | -14 | 101 | 102 | -7
CCOC(=O)Cc1csc(N2CCOCC2)n1 | -10 | 97 | 106 | 9
Cc1c(C)[n+]([O-])c2ccc3c(non3O)c12 | -138 | 101 | 98 | 13
CC1=NN(c2ccc(C(=O)O)cc2)C(=O)C1 | -39 | 106 | 107 | ·
CCCn1c(=O)c(C#N)cn(C2CC2)c1=O | -8 | 106 | 109 | -9
CC1=C(C(=O)Nc2ccccc2)C(c2ccccc2)C2=C(N1)c1ccccc1C2=O (stereo not given) | -1 | 100 | 107 | -12
Cc1ccc(C)n1-c1nnc(N2CCC(C(=O)NC(C)c3ccc4c(c3)OCCO4)CC2)s1 (stereo not given) | -18 | 104 | 104 | -1
CC(C)Cn1c(CCCO)nc2ccccc21 | · | 101 | 105 | -12
CN1c2ccccc2Sc2cc(C=C(C#N)C#N)ccc21 | 8 | 99 | 103 | -1
O=C(NCC1CCCO1)c1cc(NS(=O)(=O)c2cccs2)cc(NS(=O)(=O)c2cccs2)c1 (stereo not given) | -27 | 97 | 101 | -12
Cc1ccc(N(CC(=O)Nc2cccc(C)c2)S(=O)(=O)c2c(C)n[nH]c2C)cc1 | -25 | 102 | 103 | -6
Cc1ccc(NC(=O)Cn2nnc(-c3ccccc3)n2)cc1 | · | 100 | 102 | -12
Cc1[nH]c2ccccc2c1SCCN | 11 | 99 | 105 | 7
COC(=O)c1ccc(C)c(NC(=O)CC2CCCC2)c1 | 13 | 101 | 102 | -18
CCOc1ccccc1NC(=O)N1CCCN(c2ncccc2C#N)CC1 | 0 | 103 | 101 | -53
COC(=O)c1ccccc1NC(=O)C1CCN(S(=O)(=O)c2ccc(OC)c(OC)c2)CC1 | -4 | 100 | 101 | 2
Nc1cc(=O)[nH]c(S/C=C/c2ccccc2)n1 | -18 | 101 | 108 | ·
Cc1ccccc1OCC(=O)Nc1ccc2nn(-c3ccccc3)nc2c1 | -7 | 103 | 95 | ·
O=C1CCCC2C3CCCN4CCCC(CN12)C34 (stereo not given) | -19 | 103 | 102 | -7
COC(=O)c1scc(S(=O)(=O)C(C)(C)C)c1N | 4 | 107 | 106 | -38
CC1CCCCC1NC(=O)CC#N (stereo not given) | · | 103 | 99 | 4
O=C1NC(=O)N(c2ccccc2)C(=O)C1=Cc1c2ccccc2cc2ccccc12 | -17 | 100 | 90 | 60
CCOc1ccc(Br)cc1S(=O)(=O)Nc1ccc(F)cc1 | · | 103 | 107 | -7
COC(=O)c1c(N)sc2c1CCC(C(C)(C)C)C2 (stereo not given) | -20 | 105 | 97 | ·
CN1CCN(Cn2nc(-c3cccc(S(=O)(=O)N4CCOCC4)c3)n(Cc3ccc(F)cc3)c2=S)CC1 | -5 | 102 | 94 | 13
CC12CCC(CC1=NNc1nc3ccccc3o1)C2(C)C (stereo not given) | -72 | 95 | 219 | 30

4 compounds already listed, arranged by formula weight, highest first:
SMILES | MenB inh | Polio RdRp inh | Polio RdRp inh intensity | Mtb MbtI inh
CCOc1ccc(Br)cc1S(=O)(=O)Nc1ccc(F)cc1 | · | 103 | 107 | -7
CC12CCC(CC1=NNc1nc3ccccc3o1)C2(C)C (stereo not given) | -72 | 95 | 219 | 30
COC(=O)c1c(N)sc2c1CCC(C(C)(C)C)C2 (stereo not given) | -20 | 105 | 97 | ·
Cc1[nH]c2ccccc2c1SCCN | 11 | 99 | 105 | 7

(more compounds)
SMILES | MenB inh | Polio RdRp inh | Polio RdRp inh intensity | Mtb MbtI inh
COC(=O)C1=CN(Cc2ccc(OC)cc2)C=C(C(=O)OC)C1c1cccc(O)c1 | -38 | 102 | 102 | 119
O=C(Nc1c(C(=O)N(Cc2ccc(F)cc2)Cc2cccnc2)oc2ccccc12)C1CC1 | -6 | 100 | 100 | 125
CCC(C(=O)O)C(C)CC(=O)Nc1ccccc1Cl (stereo not given) | 1 | 101 | 103 | -20
CCC(C(=O)Nc1cccc(OC)c1)n1c(SCc2ccc(C)cc2)nc2cccnc21 (stereo not given) | -55 | 101 | 96 | -25
CCN(C(=O)c1cncn1-c1ccc(F)cc1)c1nc2c(C)cccc2s1 | -12 | 101 | 104 | 3
CCN1C(=O)c2cccc3c(S(=O)(=O)NC(Cc4ccccc4)C(=O)O)ccc1c23 (stereo not given) | -23 | 100 | 102 | 2
Cc1cccc(CN2CCNCC2)c1 | -8 | 107 | 112 | -21
CCC(CC)NC(=O)COc1ccc(Cl)cc1Cl | · | 101 | 100 | -4
CCc1ccc(OC(C)C(=O)N2CC(C(=O)OC)Oc3ccccc32)cc1 (stereo not given) | -18 | 101 | 103 | 2
COc1cc(C=Nc2nonc2NC(C)=O)ccc1OC(C)C | 1 | 104 | 114 | ·
Cc1ccc(CN(C)C(=O)CN(C)S(=O)(=O)c2ccc(Cl)cc2)o1 | -1 | 105 | 106 | 29
COCc1nnc(NS(=O)(=O)c2ccc(OC)cc2)s1 | -6 | 101 | 106 | -8
Cc1ccc(S(=O)(=O)NCCOc2nc(N(C)C)nc(N3CCOCC3)n2)cc1 | -5 | 98 | 102 | -7
CN(Cc1ccccc1)C(=O)COC(=O)C1=NNC(=O)CC1 | -33 | 105 | 99 | 4
O=C(NCC(c1cccs1)N1CCc2ccccc2C1)C1CC1 (stereo not given) | -12 | 106 | 103 | -3
CCOC(=O)c1cc2c(=O)n3cccc(C)c3nc2n(C)c1=N | -15 | · | · | 103
OCc1c[nH]c2ccccc12 | -19 | 107 | 106 | 2
COCC(C)NC(=O)c1cccc(Cl)c1 (stereo not given) | -25 | 99 | 102 | -14
Cc1cccc(Cn2nc(C(C)(C)C)cc2C(=O)NCc2cccs2)c1 | -29 | 98 | 101 | 10
Cc1c(O)nc2ccccn2c1=O | 10 | 105 | 97 | 17
CSc1[nH]c(=O)cc(C)c1C(=O)O | 1 | 106 | 97 | 32
O=c1[nH]c2ccccc2c(O)c1-c1nc2ccccc2c(=O)[nH]1 | 43* | 104 | 101 | -255
O=c1ccc2cc(O)c(O)cc2o1 | 1&2 | 101&101 | 98&101 | -40&-72
Cn1cnc(S(=O)(=O)NCC2CCN(S(=O)(=O)c3ccccc3)CC2)c1 | -9 | 97 | 105 | -3
CSc1ccc(CN2CCN(Cc3ccco3)CC2)cc1 | -6 | 100 | 101 | -7
NC1=NN=C(c2ccccc2)CS1 | -57 | 97 | 102 | 65*
CCOc1ccc(C(C(=O)NC2CCCC2)N(Cc2ccco2)C(=O)Cn2nnc3ccccc32)cc1OC (stereo not given) | 28 | 101 | 102 | 10
COc1cc(NS(=O)(=O)N2CCCC2)cc(OC)c1OC | -29 | 99 | 92 | ·
CCOc1ccc(N(C(C)C(=O)NCc2ccc(C)cc2)S(C)(=O)=O)cc1 (stereo not given) | -9 | 102 | 106 | 0
NNC(=O)CNC(=O)c1cccs1 | 20 | 103 | 107 | -1

Remaining list, next part
Compound	MenB inh	Polio RdRp inh	Polio RdRp inh intensity	Mtb MbtI inh
CN(C)CCN(C(=O)C1=COCCO1)c1nc2ccc(F)cc2s1	8	100	100	22
Cc1ccc(/C=N/N2C(=O)C3C(C2=O)C2C=CC3C23CC3)o1 (stereo not given)	-40	105	109	·
O=C(COC(=O)c1c(F)cccc1F)c1cccs1	3	102	96	15
COCCn1c(C)cc(/C=C2/C(=O)N(c3ccccc3)c3ccccc32)c1C	-88	102	104	13
CCCC(=O)Nc1nonc1-c1ccc(OC)cc1	-16	103	101	0
CN(C(=O)CSc1nc(O)cc(=O)n1-c1ccccc1F)c1ccccc1	-123	98	103	-1
Cc1ccc(S(=O)(=O)N2N=C(C(C)C)CC2(O)C(F)(F)F)cc1 (stereo not given)	-55	101	101	-5
CCn1c(=NC(=O)c2cccs2)sc2cc(OC)c(OC)cc21	-2	104	103	101
COc1ccc(/C=C/C(=O)C2CC2)cc1COc1cccc(C)c1C	-56	102	98	-226
CN(C(=O)c1ccc(C#N)cc1)C1CCCCC1	-16	96	107	10
CCOC(=O)CSc1sc(C(=O)OCC)c(N)c1C#N	-39	108	113	·
Cc1nc(-c2ccc(C(=O)N3CCCCC3)cc2)cs1	-18	98	103	14
Cn1c(=O)c2c(nc3sccn32)n(C)c1=O	4	98	100	-2
S=c1[nH]nc(Cc2ccccc2)n1Cc1ccco1	-34	104	103	6
Cc1[nH]c2ccccc2c1C(c1c(C)[nH]c2ccccc12)C(C)C	-1	99	104	10
CC1CCCCC1NC(=O)c1cccn2c(=O)c3c4c(sc3nc12)CCCC4 (stereo not given)	-5	100	102	4
O=C(CSC(F)(F)F)Nc1ccccn1	·	105	105	-15
c1cncc(Oc2nc(-c3cccnc3)nc3ccccc23)c1	-18	107	124	0
O=C(Cc1ccc(S(=O)(=O)N2CCCC2)s1)N1CCOCC1	-31	108	110	-6
O=C(O)CSc1cc(Cl)ccc1Cl	-7	101	109	-11
CN(C)C(=O)COC(=O)c1cccc(Oc2ccccc2)c1	·	102	97	1
NS(=O)(=O)c1ccc(NC(=O)CSc2ccccc2)cc1	-11	102	110	-1
Cn1c(C(=O)Nc2ccccc2)cc2sccc21	-31	103	107	22
Nc1nc2c(s1)CCc1c-2cnn1-c1ccccc1	3	42*	59*	·
CCCN(CCO)CC1CC=CCC1 (stereo not given)	4	99	94	·
C(=C\c1ccccc1)/CN1CCN(CC2CCCCC2)CC1	-8	100	104	-8
COCC(C)n1c(COc2ccccc2F)nn(CN2C(C)CCCC2C)c1=S (stereo not given)	-36	104	108	13
O=C1NC(=O)C(C2CCS(=O)(=O)C2)C(=O)N1 (stereo not given)	-6	100	108	-1
O=C(OCCN1CCCC1=O)c1cccnc1Cl	·	102	95	-4
O=C(O)c1nc2ccc(S(=O)(=O)C(F)(F)F)cc2n1O	-12	101	100	-10
O=C(Nc1ccc(N2CCOCC2)cc1)c1ccc2c(c1)S(=O)(=O)c1ccccc1C2=O	-7	101	108	-7
CCOC(=O)c1oc2ccccc2c1NC(=O)CCN1CCCCC1	-15	105	94	·
COc1ccc(OCC(O)CNC(=O)c2cccnc2Oc2ccc(Cl)cc2)cc1 (stereo not given)	-28	102	98	-7
COc1ccc(CNC(=O)C(C)N2CCC(c3nc4ccccc4o3)CC2)cc1 (stereo not given)	3	101	105	-2
Cc1cccc(C)c1NC(=O)NN1C(C)CCCC1C (stereo not given)	6	105	97	5
c1nc(NCCCN2CCOCC2)c2c3c(sc2n1)CCCCC3	-8	103	103	-4
Cc1ccc(Sc2ncccc2C(=O)O)c(C)c1	-4	97	106	-12
NC1=NC(=O)CC(C(=O)Nc2cc(Cl)ccc2Cl)S1 (stereo not given)	·	101	99	-13
COC(=O)Nc1ccc2c(c1)N(C(=O)CCN1CCOCC1)c1ccccc1S2	30	100	101	6
COC(=O)CNc1ccc2c(c1)OCO2	-3	104	106	·
Cc1cc(C)c(NC(=O)/C=N/O)c(Cl)c1	-14	104	105	-2
NC(=O)CN1C(=O)CC(c2ccco2)Sc2ccccc21 (stereo not given)	-3	100	103	-1
Cc1ccc(-c2cn3nc(N4CCC(C(=O)NCCN(C)C)CC4)sc3n2)cc1	5	99	102	-14
CCOC(=O)c1c(C)[nH]c(C)c1S(=O)(=O)NC(C)CC (stereo not given)	-25	104	104	-16
COc1ccccc1NC(CC(=O)c1ccccc1)C(=O)O (stereo not given)	-9	106	104	·
c1ccc(N2CCN(c3ccc(-c4nc5ccccc5[nH]4)cn3)CC2)cc1	-9	105	106	99
c1csc(CSc2nc3ccccc3[nH]2)c1	-24	102	103	-210
Cc1cccc(-c2nc(CS(=O)CC(=O)NCc3cccs3)c(C)o2)c1 (stereo not given)	-29	102	107	9
O=C(CC1SC(=NC2CC3C=CC2C3)NC1=O)Nc1ccccc1Cl (stereo not given)	-23	100	91	-5
O=C(Nc1ccc2c3c(cccc13)CC2)C1=COCCO1	3	100	98	-1
O=C(N/N=C\c1ccccc1C(F)(F)F)c1ccccn1	-8	106	101	17
O=S(N1CCCCC1)C12CC3CC(CC(C3)C1)C2 (stereo not given)	-25	100	101	-10
COC(=O)C1C2c3ccccc3C(c3ccccc32)C1C(=O)OC (stereo not given)	-12	112	112	-3
O=c1cc2nc(-c3ccco3)nc(SCc3ccccc3)n2[nH]1	-37	99	103	-7
CNC(=O)c1ccc(/C=C2/Sc3ccccc3NC2=O)cc1	-25	102	105	-17
COCC(=O)Nc1ccc(CC#N)cc1	0	104	104	·
Cc1c(-c2ccccc2)sc2ncnc(Sc3nnc(C4CC4)o3)c12	-33	98	90	38
Nc1cc(SC(F)(F)C(F)(F)C(F)(F)F)cc2c1OCC(=O)N2	6	101	105	6
O=C(c1ccccc1)N(Cc1ccccc1)c1ccccn1	2	100	99	-4
CCc1ccc2[nH]c(=O)c(CN(CCCO)C(=O)Nc3ccccc3)cc2c1	17	101	102	14
